# Screening data from PubChem.
# YjeE inh = qHTS Assay for Inhibitors of YjeE; purified YjeE, fluorescence polarisation of a bound ADP probe; Potency, µM; actives 0.05% (n = 71,000); active = well fitted falling curve; inconclusive = weaker or top-dose-only fall, or a rising curve; inactive = flat or poorly fitted curve;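 further: top concentration of the series not given in the record; excess ADP was the control for the full effect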
#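 Fluorescence polarization of a BODIPY Texas Red–ADP probe (2 uM) bound to purified YjeE (10 uM) was read after 15 min room-temperature incubation with compounds. Loss of polarization marks inhibitors; ADP serves as titrated control.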
# PK Bst = Pyruvate Kinase. partly purified Bacillus stearothermophilus pyruvate kinase, luminescence ATP production; ribose 5-phosphate activator present at AC10. Potency, µM. actives 1.2% (n = 51,000); in the data active means potency below about 11 µM; inconclusive means mostly about 12 µM to 25 µM; inactive means weaker than that;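 the screen sought inhibitors and activators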;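 further: potency means the concentration at half of the fitted maximal effect; scaled between full activation by ribose 5 phosphate and full inhibition by luteolin; about four in five hits inhibit and the cells do not say which; series up to 57 µM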
# Starred values were filed as active, the others as inactive; i = inactive; ? = inconclusive; · = no result given. This is a subset, so the mix of outcomes need not match the whole.
Molecule | YjeE inh | PK Bst
CCCNC(=O)N(C)c1nncnc1C(=O)NC | · | >26
COc1ccc(N2CC(C(=O)NCc3ccccc3)CC2=O)cc1 (stereo not drawn) | i | >57
c1ccc(-c2nc(-c3ccco3)cs2)nc1 | i | i
Cc1cc(C)cc(OCC(=O)Nc2ccc(N3CCN(S(C)(=O)=O)CC3)cc2)c1 | i | >57
Cc1ccc(S(=O)(=O)N2CCC(C(=O)N[C@@H](C)C(=O)NCCc3ccccc3)CC2)cc1 | i | >57
CCOc1ccccc1N(CC(=O)N1CCCCCC1)S(C)(=O)=O | i | ·
COCCCN1C(=O)c2[nH]nc(-c3ccccc3O)c2C1c1cccc(Cl)c1 (stereo not drawn) | i | >57
Cc1ccccc1-c1nc(CS(=O)(=O)CC(=O)NCc2ccccc2)c(C)o1 | i | ·
Cn1c(=O)c2c(nc(N/N=C\c3ccccc3C(=O)O)n2C)n(C)c1=O | i | ·
CCNc1nc(NC(C)C)nc(Oc2ccc(OCCOc3ccc(C)cc3)nn2)n1 | i | ·
O=C1Nc2ccc(S(=O)(=O)NCCC3=CCCCC3)c3cccc1c23 | i | >57
O=C(CN1C(=O)c2cccc3cccc1c23)Nc1cccnc1 | i | 10*
CCOc1ccc(NC(=O)c2ccccc2NC(=O)CN2CCN(C(C)=O)CC2)cc1 | i | >57
COc1ccc2c(c1)C(C)=CC(C)(C)N2C(=O)C(C)N1C(=O)c2ccccc2C1=O (stereo not drawn) | i | >57
CCC(C)(C(=O)NC1CCCC1)N(CC1CCCO1)C(=O)CNC(=O)c1ccccc1 (stereo not drawn) | i | >57
CCOc1cccc(N2C(=O)CC(n3cnc4ccccc43)C2=O)c1 (stereo not drawn) | i | >57
Clc1ccc(Cn2cccc2C2=NCCO2)cc1 | i | >57
Cc1cc(C(=O)Nc2cccnc2)on1 | i | ·
CCN(CC)S(=O)(=O)c1ccc(C(=O)C(C#N)c2ccccn2)cc1 (stereo not drawn) | i | >57
CCOC(=O)C1CCCN(C(=O)CNC(=O)Cn2ccc3ccccc3c2=O)C1 (stereo not drawn) | i | >57
COC(=O)c1ccc(CSc2nc(N3CCOCC3)c3c(c2C#N)CC(C)(C)OC3)o1 | · | >26
COCCN(C(=O)Cc1cccs1)c1nnc(-c2ccncc2)s1 | i | >57
COc1cccc(N2CCN(C(=O)C3CCCN(S(=O)(=O)c4cnc[nH]4)C3)CC2)c1 (stereo not drawn) | i | ·
c1ccc2nc(N3CCCC3)c(N3CCCC3)nc2c1 | i | >57
CCCCC(=O)Nc1ccc(C(=O)Nc2ccc(S(=O)(=O)N3CCCC3)cc2)cc1 | i | >57
Cc1ccc(NC(=O)CN(C)c2ccc(S(=O)(=O)N3CCN(C)CC3)cn2)cc1 | i | >57
C=C1C[C@@]23C[C@]1(O)CC[C@@H]2[C@]12C=C[C@@H](O)[C@@](C)(C(=O)O1)[C@@H]2[C@@H]3C(=O)O | i | ·
COc1cccc(Cn2c(=O)c(C)nc3cnc(OCc4ccccc4)nc32)c1 | i | ·
C[C@@H](C(=O)NCc1cccc2ccccc12)[C@H]1C[C@]1(C)[C@H](NC(=O)OCc1ccccc1)c1ccccc1 | i | ·
O=C1c2ccccc2C(=O)N1Cc1nc(-c2ccccn2)no1 | i | >57
CCOCCCn1c(C)nc2c(c1=O)c1nc3ccccc3nc1n2CCC1=CCCCC1 | i | >57
O=C(CCC1CCCCC1)Nc1c2c(nn1-c1ccc(F)cc1)CS(=O)C2 (stereo not drawn) | i | >57
COc1ccc(NC(=O)C2CC2)cc1-n1cnnn1 | i | >57
COC(=O)C1CCN(C(=O)c2ccccc2Oc2ccccc2)CC1 | i | ·
O=C(NC1CCCC1)C1CCCN1C(=O)Nc1ccccc1 (stereo not drawn) | i | >57
O=C(O)CN1C(=O)O[C@@H](c2ccccc2)C1=O | i | ·
C=CCSC1=N/C(=C\c2ccc3c(c2)OCO3)C(=O)S1 | i | ·
Cc1cc(C)c(NC(=O)c2ccc(S(=O)(=O)N3CCOCC3)cc2)c(C)c1 | i | ·
O=C(NCCc1ccccc1)c1cc2ncc(Br)cn2n1 | i | >57
CC(C)(C)c1ccc(C(=O)Nc2nonc2-c2nc3ccccc3[nH]2)cc1 | i | >57
CCCn1nnc(NC(=O)c2cc(Br)ccc2OC)n1 | i | >57
S=c1[nH]ncc2ccccc12 | i | >57
Cc1noc(/C=C/N(C)C)c1S(=O)(=O)N1CCCC(C(=O)NCc2ccc(Cl)cc2)C1 (stereo not drawn) | i | >57
O=c1nc2n(c3sc4c(c13)CCC4)Cc1ccccc1-2 | i | ·
O=C(O)c1ccc2c(c1)N(Cc1ccccc1)C(=O)c1ccccc1S2=O (stereo not drawn) | i | ·
CCC(=O)/C=C1\Sc2ccc(OC)cc2N1CCO | i | >57
COc1ccccc1C(=O)Nc1ccc(S(=O)(=O)N2CCOCC2)cc1 | i | >57
COc1ccc(CNC(=O)C(NS(=O)(=O)c2ccc3c(c2)CCCN3C(C)=O)C(C)C)cc1 (stereo not drawn) | i | >57
CN(C)S(=O)(=O)N1CCN(CC(O)COc2ccc(C(=O)c3ccccc3)cc2)CC1 (stereo not drawn) | i | >57
COc1ccc(-n2nnnc2SCC(=O)c2cc3ccccc3o2)cc1 | ? | >57
COc1ccc(C(=O)N2CCN(S(=O)(=O)c3ccccc3)CC2)c(OC)c1 | i | >57
CC(C)C(c1nnnn1CCc1ccccc1)N1CCOCC1 (stereo not drawn) | i | >57
Cc1nc(N2CCOCC2)c2nc(-c3ccccc3)n(CCN3CCOCC3)c2n1 | i | ·
c1ccc(-c2cccc(N3CC[C@@]4(CCCNC4)C3)c2)cc1 | i | ·
NNC(=O)CCc1ccc2ccc3ccccc3c2c1 | i | ·
CC(C)C(C(=O)NCC1CCCO1)N(Cc1ccco1)C(=O)CNS(=O)(=O)c1ccc(F)cc1 (stereo not drawn) | i | >57
Cc1ccc(-c2nn(CCC(=O)NCC3CCCO3)c(=O)c3ccccc23)cc1 (stereo not drawn) | · | >26
CC1(C)CC(=O)c2c(-c3cccnc3)n[nH]c2C1 | i | >57
CC(=O)NC(Cc1cc(C)ccc1C)C(=O)N1CCN(C(=O)Nc2ccc(C(C)=O)cc2)CC1 (stereo not drawn) | i | >57
c1ccc(CN2COc3c(ccc4c5c(ccc34)CN(Cc3ccccc3)CO5)C2)cc1 | i | ·

# Continuation:
# Sequence of screens – YjeE inh, PK Bst
O=c1oc(-c2cccs2)nc2scc(-c3cccs3)c12
 : i, i
C=CCn1c(N)nc2ccccc21
 : i, >57
COC(=O)c1cc2nc(-c3ccccc3)cc(C)n2n1
 : i, >57
CN(CCNC(=O)c1cccc(N2CCCC2=O)c1)Cc1ccccc1
 : i, >57
CCOc1ccc(C2C=C(c3ccccc3)Nc3ncnn32)cc1 (stereo not drawn)
 : ·, ?
COCCCNC(=O)CCc1nc2cccnc2n1Cc1ccccc1
 : i, >57
COc1cccc(Nc2ncc3ncc(=O)n(Cc4cccs4)c3n2)c1
 : i, ·
COCCNC(=O)CSc1nc2nc(C)cc(C)n2n1
 : i, >57
O=c1[nH]c(=S)[nH]c(-c2ccccc2)c1Cc1c(O)ccc2ccccc12
 : i, ·
C=CCN1CC(c2nc3ccccc3n2CCOc2ccccc2)CC1=O (stereo not drawn)
 : i, >57

# Single records (already shown). Order of screens: YjeE inh | PK Bst
# Entry for COc1ccc(NC(=O)C2CC2)cc1-n1cnnn1 : i | >57
# Entry for COC(=O)c1cc2nc(-c3ccccc3)cc(C)n2n1 : i | >57

# Looked up by compound from above (seven):
# Sequence of screens – YjeE inh, PK Bst
O=c1nc2n(c3sc4c(c13)CCC4)Cc1ccccc1-2
 : i, ·
COC(=O)c1cc2nc(-c3ccccc3)cc(C)n2n1
 : i, >57
Cc1cc(C)c(NC(=O)c2ccc(S(=O)(=O)N3CCOCC3)cc2)c(C)c1
 : i, ·
CC(C)(C)c1ccc(C(=O)Nc2nonc2-c2nc3ccccc3[nH]2)cc1
 : i, >57
COCCN(C(=O)Cc1cccs1)c1nnc(-c2ccncc2)s1
 : i, >57
CCOCCCn1c(C)nc2c(c1=O)c1nc3ccccc3nc1n2CCC1=CCCCC1
 : i, >57
Cc1cc(C(=O)Nc2cccnc2)on1
 : i, ·

# The results go on.
# Sequence of screens – YjeE inh, PK Bst
CCOC(=O)c1cc(C)n(-n2cnnc2)c1C
 : i, >57
COn1c(-n2nc(C)cc2C)nc2ccccc2c1=O
 : i, >57
Cn1c(N)nc2c(nc(OCc3ccccc3)n2[C@@H]2O[C@H](CO)[C@@H](O)[C@@H]2O)c1=O
 : i, ·
O=C(Cc1cn2ccsc2n1)Nc1ccccn1
 : i, >57
Cn1c(SCc2c(F)cccc2Cl)nnc1-c1cccs1
 : i, >57
Cc1cc(NC(=O)C2CCCN(S(=O)(=O)c3cnc[nH]3)C2)ccc1Br (stereo not drawn)
 : i, ·
CCN(CC)C(=O)C(C)OC(=O)c1ccc(O)cc1 (stereo not drawn)
 : i, ·
Cc1cc(C)nc(NS(=O)(=O)c2ccc(Br)cc2)n1
 : i, >57
Cn1c(CCNC(=O)c2ccco2)nc2cc(NS(=O)(=O)c3ccccc3)ccc21
 : i, >57
CCOC(=O)c1c(C)[nH]c(C(=O)COC(=O)CSCC(=O)N(CC)CC)c1C
 : i, >57
COc1cc(C(=O)Nc2nc3ccccc3[nH]2)cc(OC)c1OC
 : i, ·
CSc1nc(NC(C)C)nc(N2CCOCC2)n1
 : i, >57
O=S(=O)(c1ccccc1)N1CCC2(CCN(c3ncccn3)CC2)CC1
 : i, ·
O=C(C1CCN(S(=O)(=O)c2cccs2)CC1)N1CCc2ccccc2C1
 : i, >57
COc1ccccc1N1CCN(C(=O)c2cccc(N3C(=O)NC4CC3(C)Oc3ccccc34)c2)CC1 (stereo not drawn)
 : i, >57
COC(=O)c1[nH]c2cccc(OC)c2c1NC(=O)CCN1CC(C)CC(C)C1 (stereo not drawn)
 : i, >57
O=S(=O)(Nc1nc2ccccc2nc1NCC1CCCO1)c1cccs1 (stereo not drawn)
 : i, >57
CCOC(=O)CNC(=O)CSc1ncnc2c1cnn2-c1ccc(OC)cc1
 : i, ·
Cc1oc(-c2ccc(Cl)cc2)cc1-c1nn2c(-c3ccco3)nnc2s1
 : i, ·
Cc1ccc(-c2cc(C(F)(F)F)n3nc(C(=O)N4CCCC4)cc3n2)cc1
 : i, ·
COc1ccc(OC)c(C(=O)COC(=O)c2c(OC)cccc2OC)c1
 : i, >57
COc1cccc(OCC(O)CN(CCO)Cc2ccccc2)c1 (stereo not drawn)
 : i, >57
O=C(Cn1nnc2ccccc2c1=O)N1CCCc2ccccc21
 : i, ·
COC(=O)[C@@]1(Cc2ccc(F)cc2)[C@H]2c3cc(C(=O)N4CCCC4)n(CCc4ccc(O)c(O)c4)c3C[C@H]2CN1C(=O)c1ccccc1
 : i, ·
COc1ccc(Cn2nnnc2C(C(C)C)N(Cc2ccco2)Cc2cccs2)cc1 (stereo not drawn)
 : i, >57
CCOC(=O)CCn1cc(F)c(=O)n(Cc2ccccc2)c1=O
 : i, ·
CCCn1nnnc1SCC(=O)NCc1ccccc1
 : i, >57
CC(=O)Nc1ccc(Cc2ccncc2)cc1
 : i, >57
c1ccc(-c2ccccc2OCCn2cncn2)cc1
 : i, >57
Brc1ccc(-c2nc(-c3ccccc3)no2)o1
 : i, i
CCCCCOc1ccc(Cl)cc1CN1CCOCC1
 : ·, >26
Clc1ccc2nc(N3CCNCC3)nc(-c3ccccc3)c2c1
 : ·, >26
COC(=O)[C@@]1(Cc2ccc(OC)cc2)[C@H]2c3cc(C(=O)N4CCCC4)n(CCn4cc([N+](=O)[O-])nc4C)c3C[C@H]2CN1C(=O)c1ccccc1
 : i, ·
O=C1C2CCCN2C(c2ccccc2F)N1c1cccc(Cl)c1 (stereo not drawn)
 : i, ·
Cc1nn(C)cc1CNC(=O)Nc1ccc(Br)cc1Cl
 : i, >57
C=CCn1c(CCC(=O)O)ccc1-c1ccc(OC)cc1
 : i, >57
COc1ccc(OC)c(C2C(C(=O)Nc3cccnc3)=C(C)NC3=C2C(=O)CCC3)c1 (stereo not drawn)
 : i, >57
CS(=O)(=O)c1ccc(Cl)c(C(=O)O)c1
 : i, >57
C=CCOC(=O)CCC(=O)Nc1cccc2ccccc12
 : i, ·
O=C(NCCN1CCOCC1)c1cc(-c2ccco2)on1
 : i, >57
O=C(c1cccnc1)N1C2CCC1CC(O)(c1ccc(F)cc1)C2 (stereo not drawn)
 : i, >57
Brc1ccc(-c2nn3c(-c4ccco4)nnc3s2)o1
 : i, >57
COCC(=O)N1CCC[C@@]2(CCN(C(=O)Nc3cccc(C#N)c3)C2)C1
 : i, ·
O=C(Cn1ncc2c(=O)oc3ccccc3c21)NCC1CCCO1 (stereo not drawn)
 : i, ·
CC(=O)c1cc(-c2ccccc2)n(CCC(=O)NCc2cccs2)c1C
 : i, >57
COc1ccc(-c2nnc(SCC(=O)N3CCCCC3)o2)c(OC)c1
 : i, >57
COc1ccc(-c2cc(N)n(CCC#N)n2)c(OC)c1
 : i, >57
O=C1CC(SCc2nc3ccccc3[nH]2)C(=O)N1c1ccc(F)cc1 (stereo not drawn)
 : i, >57
CC(C)n1nnnc1SCC(=O)NCc1cccs1
 : i, >57
c1ccc2c3c([nH]c2c1)-c1[nH]ncc1CC3
 : i, 3.1*
CCOC(=O)C1CCN(C(=O)COc2ccc(Cl)cc2Cl)CC1
 : i, >57
O=S(=O)(c1ccc2c(c1)OCCO2)N1CCN(c2cccc(Cl)c2)CC1
 : i, >57
